Assay outcomes (PubChem)
Rango release inh: qHTS Assay for Inhibitors of RanGTP induced Rango (Ran-regulated importin-beta cargo) - Importin beta complex dissociation | actives 0.071% (n = 340,000) | Potency, µM (titrated, usually from 46.1 µM), for the others: at the top dose activity change, negative = inhibition | Snurportin-1 (Homo sapiens) + GTP-binding nuclear protein Ran (Homo sapiens) + Importin … | Biochemical FRET Rango-importin beta, RanGTP-induced dissociation | AID 540253, 2011; active means falling FRET ratio curve, often poorly fitted, with flat reads before Ran was added; inconclusive means other falling curves, or compound fluorescence or quenching; inactive means flat or rising ratio curve;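 further: potency means the concentration at half of the fitted maximal effect; % of control where 0% means no effect; nearly all actives have a fitted effect of over 45% in size; -100% = wells without RanGTP and RCC1; the record marks most hits as doubtful in a second field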
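Rango FRET biosensor (snurportin-1 IBB flanked by N-terminal EYFP and C-terminal CFP10) at 0.1 uM, with 0.25 uM importin beta in PBS, 1mM DTT, 0.02% Tween-20, 0.1% BSA. 0.6 uM Ran, 2mM GTP and 0.2 uM RCC1 were then added for 45 min at room temperature. Inhibition read as loss of FRET rise.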
miR-21 FLuc: qHTS Assay for Modulators of miRNAs and/orActivators of miR-21 | HeLa miR-21 FLuc reporter, luciferase, 48 h | Potency, µM (series often up to 38.3 µM), inactives show at the highest dose reporter change, positive = more light | 340,000 tested, under 10 active; active = well fitted rising curve with a large enough effect; inconclusive = small, poorly fitted or top-dose-only effect; inactive = no such curve, though single readings can be large or run the other way;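 further: % of control where 0% means no effect; miR-21 action dims this reporter so a rising signal means less miR-21 action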
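HeLa cells stably expressing CMV-driven firefly luciferase with a downstream miR-21 binding sequence, endogenously expressing miR-21, were treated with titrations (up to about 40uM final) for 48 hours at 37 degree Celsius. Luciferase luminescence was read after lysis.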
Rango complex inh: qHTS Assay for Inhibitors of Rango (Ran-regulated importin-beta cargo) - Importin beta complex formation; Importin subunit beta-1 (Homo sapiens), Q14974; Rango CFP/YFP FRET sensor + importin beta, 45 min; Potency, µM (highest dose often 92.2 µM), without a hit: at the highest dose inhibition of complex formation; actives 0.031% (n = 340,000); AID 540263, 2011; active = rising FRET ratio curve, often small or poorly fitted; inconclusive = mostly compound fluorescence or quenching in the first reads; inactive = flat curves in all reads;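 further: potency means the concentration at half of the fitted maximal effect; 0% = DMSO wells and 100% = buffer wells lacking importin beta; nearly all actives have a fitted effect of over 15% in size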
Target sequence (Q14974 whole entry, looked up): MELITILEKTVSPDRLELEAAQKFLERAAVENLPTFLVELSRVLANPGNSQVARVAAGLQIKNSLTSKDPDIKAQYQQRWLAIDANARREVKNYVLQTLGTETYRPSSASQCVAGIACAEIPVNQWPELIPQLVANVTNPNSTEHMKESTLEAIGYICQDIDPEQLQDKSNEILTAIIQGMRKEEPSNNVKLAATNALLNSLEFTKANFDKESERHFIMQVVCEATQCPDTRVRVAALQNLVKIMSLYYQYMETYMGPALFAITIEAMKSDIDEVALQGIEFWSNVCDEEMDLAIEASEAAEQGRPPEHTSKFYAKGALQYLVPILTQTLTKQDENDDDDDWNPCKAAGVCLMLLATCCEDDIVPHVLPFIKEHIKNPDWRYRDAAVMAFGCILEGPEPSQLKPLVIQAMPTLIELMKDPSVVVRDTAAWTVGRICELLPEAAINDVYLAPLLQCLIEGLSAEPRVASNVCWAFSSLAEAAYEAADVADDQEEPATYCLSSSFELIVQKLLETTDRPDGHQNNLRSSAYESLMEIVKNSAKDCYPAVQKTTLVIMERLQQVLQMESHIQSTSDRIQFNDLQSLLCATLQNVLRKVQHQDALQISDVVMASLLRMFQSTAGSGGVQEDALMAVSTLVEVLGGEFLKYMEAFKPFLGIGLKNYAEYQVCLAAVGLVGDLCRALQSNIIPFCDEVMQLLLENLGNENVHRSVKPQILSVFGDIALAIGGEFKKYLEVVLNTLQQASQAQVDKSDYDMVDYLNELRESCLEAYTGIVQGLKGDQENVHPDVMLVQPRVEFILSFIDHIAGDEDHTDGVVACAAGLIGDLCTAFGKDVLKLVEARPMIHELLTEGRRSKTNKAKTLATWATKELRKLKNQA
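FRET biosensor (snurportin 1 IBB flanked by EYFP and cerulean), 50 nM, with compound 5 min, then 0.125 microM importin beta in PBS, 1 mM DTT, 0.02% Tween-20, 0.1% BSA. CFP/YFP ratio read after 45 min at room temperature; pre-read flags interference.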
GLA inh pH 4.5: qHTS Assay for Inhibitors of Human alpha-Galactosidase at pH 4.5 | purified enzyme, 4-MU-alpha-Gal fluorescence, pH 4.5 | activity change, negative = inhibition, % at 105 µM | 230,000 tested, under 10 active | AID 1467, 2008; inconclusive = small, poorly fitted or top-dose-only inhibition, or a rising curve; inactive = flat fitted curve, though single readings scatter; no compound was filed as active;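 further: 0% = full activity with enzyme and -100% = basal without enzyme; dose as in the result columns while the protocol names 77 µM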
Starred values were filed as active, the others as inactive; ? = inconclusive; . = no result given; & = joins results of further samples.

1: N=C1C(c2nc(-c3ccc(Br)cc3)cs2)=C(O)CN1NC(=O)c1ccc([N+](=O)[O-])cc1
2: CCCc1nc2nc(C)c(NS(=O)(=O)c3ccc(C4CCCCC4)cc3)c(=O)n2[nH]1
3: CC1(C)C[C@H]2C3=CCC4[C@@]5(C)CC[C@H](O)C(C)(C)C5CC[C@@]4(C)[C@]3(C)[C@@H](O)[C@@H](O)[C@@]2(CO)[C@@H](O)[C@@H]1O (stereo partly drawn)
4: Cc1cc(C)c(S(=O)(=O)N2CCOC2CNC(=O)C(=O)NCCc2c[nH]c3ccccc23)c(C)c1 (stereo not drawn)
5: CC1(C)C([N+](=O)[O-])C(c2ccc(Cl)cc2)NC(c2ccc(Cl)cc2)C1[N+](=O)[O-] (stereo not drawn)
6: COC(=O)c1ccc(CN2CCN(CC=C(C)C)C(CCO)C2)cc1 (stereo not drawn)
7: CCc1cc(-c2n[nH]c(=S)n2C(C)c2ccccc2)cs1 (stereo not drawn)
8: COCCCNC(=O)CC1C[C@H](C(=O)N2CCOCC2)[C@@]2(CCC3CCCC3)c3[nH]c4ccc(OC)cc4c3CCN2C1=O (stereo partly drawn)
Screen / compound no.	1	2	3	4	5	6	7	8
Rango release inh	-1%	19%	-5%	-4%	1%	0%	5%	-14%
miR-21 FLuc	0%	0%	.	15%	12%	-7%	-10%	.
Rango complex inh	-0.3%	-0.2%	-3.4%	-3.1%	-2.4%	0.5%	4.6%	-4.0%
GLA inh pH 4.5	4	.	.	-2	-23	-18	4	.

9: Cc1ccc(S(=O)(=O)N2CCC[C@H]2C(=O)Nc2ccc(F)cc2C)cc1
10: CCC(C)N(C(=O)c1csnn1)C(C(=O)NC1CCCC1)c1c(F)cccc1Cl (stereo not drawn)
11: CCC(=O)NC(=S)NNC(=O)c1ccc(NC(=O)c2ccccc2)cc1
12: COC(=O)c1ccc(CN2C(=O)NC(c3ccccc3)(c3ccccc3)C2=O)o1
13: CC(C)(C)c1ccc(-c2nnc(SCC(=O)NC3CCS(=O)(=O)C3)n2N)cc1 (stereo not drawn)
14: Cc1cc2cc(CNC(=O)c3cccc([N+](=O)[O-])c3)ccc2n1C
15: CCCOC(=O)C1=C(C)NC2=C(C(=O)CCC2)C1c1cccs1 (stereo not drawn)
16: Cc1nc2ncnn2c(C)c1CCC(=O)NCCc1ccccc1
Screen / compound no.	9	10	11	12	13	14	15	16
Rango release inh	22%	19%	-11%	-17%	-11%	1%	-9%	-18%
miR-21 FLuc	.	8%	-4%	-3%	-20%	-1%	-2%	-16%
Rango complex inh	0.8%	1.8%	13%	0.2%	-4.8%	5.6%	-3.8%	-0.6%
GLA inh pH 4.5	.	.	2	.	-1	-4	-7	4

17: CC(C)(C)c1ccc(OCC(O)CN2CCCC2)cc1 (stereo not drawn)
18: O=C(CCS(=O)(=O)c1cc(Br)cc2c1N(C(=O)C1CC1)CC2)NCC1CCCO1 (stereo not drawn)
19: CCNc1nc(N)nc(Oc2ccc(OCC)nn2)n1
20: COc1ccc(NC(=O)C2CCN(C(=O)c3ccccc3)CC2)cc1OC
21: N#Cc1c(Nc2ccc(F)cc2)sc(C(=O)c2ccc(F)cc2)c1N
22: O=C(CCC1CCCN(C(=O)c2ccc3[nH]ccc3c2)C1)N1CCN(c2ccccn2)CC1 (stereo not drawn)
23: O=C(NNS(=O)(=O)c1ccc(F)cc1)c1ccc(O)cc1
24: CC(C)(C)NC(=O)NC(=O)CN1c2cccc3cccc(c23)S1(=O)=O
Screen / compound no.	17	18	19	20	21	22	23	24
Rango release inh	-11%	0%	13%	0%	0%	0%	-3%	-3%
miR-21 FLuc	-6%	-4%	-6%	-4%	2%	28%	-1%	-6%
Rango complex inh	-1.9%	-4.7%	3.3%	-0.3%	-1.8%	1.2%	-1.0%	0.3%
GLA inh pH 4.5	.	0	3	-1	9	4	.	.

25: COc1ccc(C(=O)N/C(=C\c2ccc([N+](=O)[O-])cc2)C(=O)NC(CCSC)C(=O)O)cc1 (stereo not drawn)
26: OCCN(Cc1ccccc1)Cc1ccccc1Cl
27: O=C(c1ccc(CNS(=O)(=O)c2cccc(C(F)(F)F)c2)cc1)N1CCOCC1
28: Cc1cc(C(C)(C)C)oc1C(=O)N(CC(=O)NC1CCCC1)Cc1ccc(Cl)cc1
29: O=C(NCc1ccc2c(c1)OCO2)c1nn(-c2ccccc2)c(=O)c2ccccc12
30: O=C(CSc1nc(-c2ccc(F)cc2)cs1)N1CCOCC1
31: O=C(Nc1ccc(N2CCN(C(=O)c3ccccc3)CC2)cc1)c1cc2ccccc2o1
32: O=c1[nH]c(=O)n(C2CC(O)C(CO)O2)cc1Br (stereo not drawn)
Screen / compound no.	25	26	27	28	29	30	31	32
Rango release inh	?	-12%	1%	?	-3%	-5%	9%	-1%
miR-21 FLuc	0%	-5%	0%	-13%	8%	-61%	23%	.
Rango complex inh	?	-2.0%	0.1%	6.3%	5.1%	-4.5%	0.6%	-0.4%
GLA inh pH 4.5	-9	-2	-3	-4	1	-10	1	.

33: O=C(Nc1ccccc1)C1CC(=O)N(C2CCCCC2)C1 (stereo not drawn)
34: NC(=O)c1cc(-c2ccccc2)nc(Oc2ccccc2)n1
35: Cc1ccc(CNC(=O)CCNC(=O)c2ccc(Br)o2)cc1
36: Cc1ccc(-n2ncc3c(NCc4ccccc4)ncnc32)cc1
37: CC(=O)Nc1cccc(NC(=O)CSc2nc(=O)n(CCN3CCOCC3)c3c2CCC3)c1
38: O=C(CCN1C(=O)C2CCCCC2C1=O)NNC(=O)c1cccc(Cl)c1 (stereo not drawn)
39: Cc1ccccc1-n1c(-c2csc(C)c2C)n[nH]c1=S
40: C#CCN1C=CC(=O)[C@@H](O)[C@H]1c1ccccc1Br
Screen / compound no.	33	34	35	36	37	38	39	40
Rango release inh	-6%	-6%	-15%	-7%	4%	5%	-9%	6%
miR-21 FLuc	4%	-19%	-6%	-35%	.	-4%	-34%	.
Rango complex inh	0.3%	-1.9%	-0.8%	-1.5%	-0.1%	3.5%	7.6%	-1.9%
GLA inh pH 4.5	7	-6	11	?	.	-3	-1	.

41: CCCOC(=O)c1ccc(O)c(OC)c1
42: COc1cc(C)nc(Oc2ccc(OCCOc3ccccc3)nn2)n1
43: CC(=O)Oc1ccc(/C=C2/C(=O)N(c3ccccc3)N=C2C)cc1
44: COC(=O)c1ccc(/C=N\NC(=O)CC(=O)NCCc2ccccc2)cc1
45: COc1cc(/C=C/c2nc3ccccc3c(=O)[nH]2)cc(Cl)c1O
46: CC(C)c1ccc(NC2CCCN(C(=O)c3cnn(C(C)C)c3)C2)cc1 (stereo not drawn)
47: Cc1cccc(N2CCN(C(=O)c3ccccc3NC(=O)C3=CSCCO3)CC2C)c1 (stereo not drawn)
48: Cc1nn(CC(=O)NC(C)C(C)C)c(C)c1S(=O)(=O)N1CCCCC1 (stereo not drawn)
Screen / compound no.	41	42	43	44	45	46	47	48
Rango release inh	-8%	3%	5%	2%	?	0%	0%	8%
miR-21 FLuc	-9%	3%	4%	2%	-8%	-6%	-3%	.
Rango complex inh	4.6%	-1.5%	-0.5%	-0.6%	?	-0.1%	-5.2%	2.1%
GLA inh pH 4.5	0	-4	.	7	.	.	.	.

Nothing new here: entries from further up.
41: CCCOC(=O)c1ccc(O)c(OC)c1
42: COc1cc(C)nc(Oc2ccc(OCCOc3ccccc3)nn2)n1
Screen / compound no.	41	42
Rango release inh	-8%	3%
miR-21 FLuc	-9%	3%
Rango complex inh	4.6%	-1.5%
GLA inh pH 4.5	0	-4

(continued)
49: COc1ccc(Cn2c(C)c(C)c(C#N)c2NC(=O)Nc2cccc(C)c2)cc1
50: Cc1ccccc1OCC(=O)NN1CCN(C)CC1
51: COCCN(CC(=O)Nc1cccc(C)c1C)C(=O)c1cc(-c2cccs2)nn1-c1ccccc1
52: COc1cnc(SCCC(F)=C(F)F)[nH]c1=O
53: O=C1C=C(c2cccc(OCc3ccccc3)c2)C[C@@H](c2ccc3c(c2)OCO3)C1
54: Cc1cccc2c(N=O)c(O)n(CCc3ccccc3)c12
55: O=C1Nc2cc(C(=O)N3CCOCC3)ccc2S/C1=C\c1ccccc1
56: CCc1cccc(OCC(=O)Nc2ccc(C)c(S(=O)(=O)N3CCCCCC3)c2)c1
Screen / compound no.	49	50	51	52	53	54	55	56
Rango release inh	8%	0%	-1%	0%	12%	6%	25%	-19%
miR-21 FLuc	-3%	-3%	.	-2%	.	11%	12%	.
Rango complex inh	5.5%	-2.5%	1.1%	0.1%	0.1%	1.5%	6.3%	-0.4%
GLA inh pH 4.5	-1	5	.	-2	.	.	.	.

57: COc1cc(OC)c(N(C)S(=O)(=O)c2cccc(C(=O)NC3=NCCS3)c2)cc1Cl
58: C=CC[C@@H](CC(=O)N[C@@H](CO)Cc1ccccc1)C(=O)NCCOC(=O)[C@@H](CC=C)CC(=O)OC(C)(C)C
59: Cc1cc(Cl)ccc1OCCCC(=O)N/N=C/c1cccc([N+](=O)[O-])c1
60: CC(=O)c1cccc(-n2c(CCC(=O)O)ccc2-c2ccccc2)c1
61: O=C(NC(=S)Nc1ccccc1N1CCCCC1)c1ccc(F)cc1Cl
62: C[C@@H]1CN([C@@H](C)CO)C(=O)c2cc(NC(=O)Nc3ccc4c(c3)OCO4)ccc2O[C@H]1CN(C)S(=O)(=O)c1ccc(F)cc1
63: Cc1ccc(-c2n[nH]c(=O)c3ccccc23)cc1S(=O)(=O)NCCN1CCOCC1
64: COc1ccc(CNC(=O)COC(=O)CCc2c[nH]c3ccccc23)cc1
Screen / compound no.	57	58	59	60	61	62	63	64
Rango release inh	14%	17%	-13%	-12%	-12%	6%	-2%	4%
miR-21 FLuc	25%	.	-9%	-22%&-22%	4%	.	-18%	1%
Rango complex inh	-4.8%	-0.2%	-0.8%	0.3%	-0.4%	-0.3%	-4.2%	0.0%
GLA inh pH 4.5	-3	.	-3	.	.	.	-4	3

65: COc1ccc(S(=O)(=O)c2c(O)c3ccc(C(=O)Nc4ccccc4F)cc3[nH]c2=O)cc1
66: COc1ccccc1NC(=O)Nc1ccc2c(c1)OCCO2
67: Cc1n[nH]c(=O)c2c(NC(=O)CSc3cc(Cl)ccc3Cl)oc(C)c12
68: COc1ccc(NC(=O)NC2CCCc3ccccc32)cc1OC (stereo not drawn)
Screen / compound no.	65	66	67	68
Rango release inh	3%	2%	-3%	0%
miR-21 FLuc	1%	-45%	.	-23%
Rango complex inh	-2.7%	0.7%	-3.0%	0.2%
GLA inh pH 4.5	.	5	.	.

Record cards (already shown). Values in the order: Rango release inh	miR-21 FLuc	Rango complex inh	GLA inh pH 4.5
COc1ccc(NC(=O)NC2CCCc3ccccc32)cc1OC (stereo not drawn) as listed: 0%	-23%	0.2%	.
Cc1n[nH]c(=O)c2c(NC(=O)CSc3cc(Cl)ccc3Cl)oc(C)c12 as listed: -3%	.	-3.0%	.
COc1ccc(S(=O)(=O)c2c(O)c3ccc(C(=O)Nc4ccccc4F)cc3[nH]c2=O)cc1 as listed: 3%	1%	-2.7%	.
COc1ccccc1NC(=O)Nc1ccc2c(c1)OCCO2 as listed: 2%	-45%	0.7%	5

Only part of the results is shown. The share of hits here may be higher or lower than overall.
